Source: PubChem (National Center for Advancing Translational Sciences (NCATS))
D2 ag: Beta-Arrestin HTS for Positive Allosteric Modulators of the Human D2 Dopamine Receptor: Agonists | DiscoveRx PathHunter D2 beta-arrestin, luminescence, 90 min; 100% = 57 uM dopamine signal | D(2) dopamine receptor (Homo sapiens), P14416 | 360,000 compounds, 0.084% hits | AID 624465, 2012 | activation, % (no concentration beside the values); in the data active = activation above about 40%; inconclusive = about 15% to 40%; inactive = below about 15%; note: compound concentration not given in the record; the text of the record calls up to 30% inactive
Target sequence (P14416 whole entry, looked up): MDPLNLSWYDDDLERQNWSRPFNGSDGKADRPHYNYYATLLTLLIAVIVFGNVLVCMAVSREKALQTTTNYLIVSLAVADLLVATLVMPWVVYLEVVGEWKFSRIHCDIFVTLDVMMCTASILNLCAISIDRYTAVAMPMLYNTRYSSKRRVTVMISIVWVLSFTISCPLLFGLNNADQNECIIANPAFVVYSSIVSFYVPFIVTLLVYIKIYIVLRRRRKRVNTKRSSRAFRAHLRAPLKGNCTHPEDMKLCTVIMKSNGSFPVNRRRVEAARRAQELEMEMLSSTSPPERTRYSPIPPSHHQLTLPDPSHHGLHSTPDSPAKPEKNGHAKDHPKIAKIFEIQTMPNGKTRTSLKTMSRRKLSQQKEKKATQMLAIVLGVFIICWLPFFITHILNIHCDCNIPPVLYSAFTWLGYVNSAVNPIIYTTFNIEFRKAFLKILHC
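Agonist mode: compounds alone added to overnight-plated D2 PathHunter cells for 90 min at 37 C, with 57 uM final dopamine (EC100) defining full response. Beta-arrestin recruitment detected by chemiluminescent reagent, read after 1 h at ambient temperature.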
CtBP-E1A blk: qHTS Assay for Inhibitors of the CtBP/E1A Interaction | CtBP / adenovirus E1A interaction (AlphaScreen) | AlphaScreen GST-E1A/His-CtBP binding, 1536-well; hits give low values; control for the full effect not named in the record | activity change, % (concentration not given with the values) | 340,000 compounds, 0.49% hits; in the data active means activity change below about -65%; inconclusive means about -30% to -65%; inactive means above about -30%; note: % is set by controls: 0 for no effect and ±100 for the full control effect
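Steps: dispense buffer (Tris pH 8.0, NaCl 300 mM, TCEP 1 mM, BSA, Tween 20); add 5X protein mix (GST-E1A, His-CtBP, 125 nM each); pin 23 nL compound; 2 h at 37 °C, dark; add 5X beads (50 ug/mL); 1 h; read.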
PINK1 expr mod: A Quantitative High throughput Screen to Identify Chemical Modulators of PINK1 Expression. 410,000 compounds, 0.2% hits. Potency, µM (top dose mostly 76.6 µM), for the others: at the highest dose activation (PINK1 increase), most hits filed as activators. PINK1 immunofluorescence, high-content cytometry, 24 h. AID 624263, 2012; active = well fitted activation curve with a large enough effect; inconclusive = small, poorly fitted or top-dose-only effect; inactive = flat fitted curve, though single readings scatter; cell line not stated here;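 note: potency is the fitted concentration of half-maximal effect; % of control where 0% means no effect; nearly all actives have a fitted effect of over 65% in size; a mitochondrial uncoupler was the plate control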
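PINK1 protein, normally rapidly degraded, was detected by immunofluorescence after 24 hour compound treatment of a stable cell line. Titration data (5 concentrations) came from laser-scanning cytometry, with CCCP-treated wells as controls.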
TRPML1 ag: qHTS for Agonists of the Human Mucolipin Transient Receptor Potential 1 (TRPML1); Mucolipin-1 (Homo sapiens), Q9GZU1; activation, % (concentration not given with the values); TRPML1-expressing cells, Ca2+ dye fluorescence, FDSS; host cell line not named in the record; reference of the full effect not given here; 410,000 compounds, 0.12% hits; AID 624414, 2012; in the data active = activation above about 50%; inconclusive = about 30% to 50%; inactive = below about 30%; note: 0% is about no effect; the text of the record puts the active cut at 80%
Target sequence (Q9GZU1 whole entry, looked up): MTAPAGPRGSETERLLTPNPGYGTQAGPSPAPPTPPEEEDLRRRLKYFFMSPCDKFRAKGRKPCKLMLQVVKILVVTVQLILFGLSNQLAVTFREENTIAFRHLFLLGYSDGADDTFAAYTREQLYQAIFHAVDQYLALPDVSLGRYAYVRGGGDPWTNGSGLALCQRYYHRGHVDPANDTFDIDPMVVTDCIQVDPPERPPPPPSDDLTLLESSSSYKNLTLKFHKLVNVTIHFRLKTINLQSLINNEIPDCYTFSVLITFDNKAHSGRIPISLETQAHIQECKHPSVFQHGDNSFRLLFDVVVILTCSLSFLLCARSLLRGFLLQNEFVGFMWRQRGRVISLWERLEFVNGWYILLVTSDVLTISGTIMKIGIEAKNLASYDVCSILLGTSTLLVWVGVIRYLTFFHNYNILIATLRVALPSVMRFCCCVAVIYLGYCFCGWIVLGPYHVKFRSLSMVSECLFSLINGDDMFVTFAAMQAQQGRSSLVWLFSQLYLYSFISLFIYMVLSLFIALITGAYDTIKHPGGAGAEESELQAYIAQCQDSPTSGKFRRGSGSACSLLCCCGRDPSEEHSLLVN
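Cells: TRPML1-DL, 1X Tet inducer, ~16 h at 37 degrees C/5% CO2. Dye: ABD Ca8 no-wash + quencher, 45-90 min RT. Read: 10 s baseline, compound add, 110 s agonist phase; 54-4 EC80 (4uM final), 110 s antagonist phase.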
Six1-Eya2 inh: qHTS Assay for Inhibitors of the Six1/Eya2 Interaction; Homeobox protein SIX1 (Homo sapiens) + Protein phosphatase EYA2 (Homo sapiens), …; AlphaScreen GST-Six1/His-Eya2 binding, biochemical; hits give low values; control for the full effect not named in the record; activity change, % (no concentration beside the values); 360,000 compounds, 0.56% hits; AID 651725, 2012; in the data active = activity change below about -65%; inconclusive = about -30% to -65%; inactive = above about -30%; note: % is set by controls: 0 for no effect and ±100 for the full control effect
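Compounds are tested against tagged Six1 and Eya2 proteins bridged by glutathione donor and nickel acceptor beads; after a one-hour incubation at 37 °C without light, AlphaScreen emission is recorded.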
TRPML1 inh: qHTS for Inhibitors of the Human Mucolipin Transient Receptor Potential 1 (TRPML1); activity change, negative = inhibition, % (no concentration beside the values); Mucolipin-1 (Homo sapiens), Q9GZU1; TRPML1-inducible cells, Ca2+ dye fluorescence, FDSS; hits give low values; inhibition of EC80 agonist-evoked calcium signal; 390,000 compounds, 0.02% hits; in the data active means activity change below about -50%; inconclusive means about -30% to -50%; inactive means above about -30%;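 note: stimulus is agonist 54-4 at its EC80 concentration; % is set by controls: 0 for no effect and ±100 for the full control effect; compound concentration not given in the record; the text of the record puts the active cut at -80%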
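TRPML1-DL cells, Tet-induced overnight (~16 h, 37 °C) at 1,500 cells/well, were loaded with Ca8 no-wash dye plus quencher for 45-90 min at room temperature. Compounds were pinned during FDSS kinetic reading; agonist 54-4 at EC80 (4 uM final) then added.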
An asterisk follows results filed as active; ? = inconclusive; . = not tested or not shown; [ ] = dose if it differs, or a comment.

SMILES | D2 ag | CtBP-E1A blk | PINK1 expr mod | TRPML1 ag | Six1-Eya2 inh | TRPML1 inh
Cc1cccc(/C=C/C(=O)c2cc(Br)ccc(=O)c2O)c1 | -4.4 | 0.0 | -1.2% | -0.4 | -16.2 | -11.6
CCOC(=O)C1CCN(S(=O)(=O)c2nc3nc(C)cc(C)n3n2)CC1 | -1.7 | 8.8 | 0.4% | -0.8 | -1.8 | -9.4
O=C(Nc1ccc(Cl)cc1)c1nc[nH]c1C(=O)Nc1ccccc1F | -9.5 | 4.3 | 19.9% | 0.2 | 18.7 | 12.0
CC1(C)Cc2nc3sc4c(SCC(=O)NC(c5ccccc5)c5ccccc5)ncnc4c3cc2CO1 | 0.2 | -4.0 | 9.1% | -0.9 | 0.2 | 14.4
O=C(CSc1ncn[nH]1)N1CCN(S(=O)(=O)c2ccccc2)CC1 | 1.8 | -2.9 | 1.5% | -0.2 | 6.4 | 5.1
CCCc1cc(C(=O)OCC(=O)N(CCC)c2c(N)n(Cc3ccccc3)c(=O)[nH]c2=O)sc1C | -1.8 | 2.5 | -0.5% | 0.7 | 0.0 | 6.6
N=C1SCC(=O)N1c1ncc(Cc2ccc(F)cc2)s1 | -3.2 | -20.3 | 3.6% | 0.1 | -14.4 | 2.3
Cc1nnc(N(Cc2ccccc2)C(=O)c2cnccn2)s1 | 2.7 | -3.4 | 1.4% | -0.2 | 5.2 | 5.5
COc1ccc(CCN(C)C(=O)c2cc(S(=O)(=O)N3CCCCCC3)ccc2OC)cc1OC | 1.2 | 7.3 | -2.8% | 1.7 | 5.1 | -4.4
Nn1c(SCC(=O)N2CCCCC2)nnc1-c1ccncc1 | 3.0 | -5.5 | 4.4% | 0.4 | 1.8 | -17.7
CC1Cc2nc(SCC(=O)NCc3ccccc3)n(Cc3ccccc3)c(=O)c2S1 (centres undefined) | 1.5 | 6.9 | 1.7% | 1.2 | 16.0 | -4.1
CCN(CC)CCNC(=O)CS(=O)Cc1nc(-c2ccc(C)cc2)oc1C (centres undefined) | -2.9 | -6.0 | 4.7%[38.3 µM] | -0.3 | -1.0 | 17.9
c1cncc(Nc2nc(-c3cccnc3)cs2)c1 | 3.8 | -18.0 | 0.7%[38.3 µM] | 0.0 | -10.3 | 47.7
Cc1c(CCO)c(=O)[nH]n1S(=O)(=O)c1ccc([N+](=O)[O-])cc1 | ? | 4.7 | -0.5% | -0.4 | 0.0 | 11.2
Cc1ccc(CSCCNC(=O)C2CCN(S(=O)(=O)Cc3ccccc3)CC2)cc1 | . | . | -0.3% | -0.4 | . | -29.8
CCOC(=O)c1c(N)sc(C(=O)OCCOC)c1C | -4.5 | -22.8 | -0.6% | 1.0 | 1.0 | 8.0
CC1(C(=O)NC2CCCC2)CCC(=O)N1CCOc1ccccc1 (centres undefined) | -3.9 | -22.5 | 1.1% | 0.3 | 9.3 | .
CCOC(=O)c1ccc(NC(=O)CS(=O)(=O)c2cn(CC)c3ccccc23)cc1 | 0.9 | 4.0 | 0.7% | 8.0 | -11.5 | -12.6
COc1ccc(C)cc1NC(=O)C1CC(=O)OC12CCCCC2 (centres undefined) | 1.8 | 10.5 | -3.4%[38.3 µM] | 0.0 | 2.5 | 13.8
CCCOc1ccc(CSC2=NCCN2)cc1[N+](=O)[O-] | -0.5 | 5.8 | 3.5% | -0.5 | -1.4 | 2.0
O=C(Nc1ccc(F)cc1F)c1cc2ccc3cccnc3c2[nH]1 | . | . | ? | -0.1 | . | 8.3
COc1ccc(C(=O)NNC(=O)C2CCCN(C3CC(=O)N(c4ccccc4)C3=O)C2)cc1 (centres undefined) | -4.2 | . | 0.1% | -0.4 | 10.9 | 13.3
CCOC(=O)c1cc(NC(=O)c2ccco2)ccc1N1CCOCC1 | -4.0 | -24.6 | 0.7% | 0.3 | 0.0 | 2.7
O=C(NCCCc1ccccc1)c1cc(COc2c(F)cccc2F)on1 | 1.5 | 13.4 | 4.6% | 3.8 | 12.7 | 64.0
CCOC(=O)NN1C(=O)c2ccccc2NC1c1ccccc1O (centres undefined) | -3.6 | 4.1 | -1.8% | -0.3 | 4.6 | -18.3

Further entries follow.
SMILES | D2 ag | CtBP-E1A blk | PINK1 expr mod | TRPML1 ag | Six1-Eya2 inh | TRPML1 inh
CCOc1ccc(CCNC(=O)CN2C(=O)CCSc3ccccc32)cc1 | 3.0 | 6.0 | 0.9% | -0.2 | 10.7 | -16.7
COc1cc2c(cc1OC)CN(C(=O)CN1CCN(S(=O)(=O)c3ccccc3)CC1)CC2 | 4.6 | -1.3 | -0.4% | -0.4 | 0.3 | 27.8
O=c1[nH]c(CSc2ncnc3sccc23)nc2cc(C(F)(F)F)ccc12 | 0.7 | 6.4 | ? | 0.8 | -2.1 | -6.2
COc1ccc(C2CC(c3ccccc3)=NN2C(=O)CSc2nccc(=O)[nH]2)cc1 (centres undefined) | 0.1 | 0.0 | 0.6% | -0.2 | 20.2 | 24.8
CC1CC(C)CN(CC(=O)Nc2cc(S(=O)(=O)N3CCOCC3)ccc2N2CCCC2)C1 (centres undefined) | -2.7 | -3.9 | -1.7% | 1.3 | -2.9 | -0.6
CC(OC(=O)CCCN=C1NS(=O)(=O)c2ccccc21)C(=O)NC1CCCCC1C (centres undefined) | -5.3 | 10.3 | 23.3% | 0.2 | 2.6 | 13.0
CCOc1ccc(C(C)(O)CN2CCOCC2)cc1 (centres undefined) | -4.2 | -7.5 | 1.7% | 0.3 | -6.6 | 24.5
COC(=O)c1ccc(NC(=O)N2CCC(O)(c3cccnc3)CC2)cc1 | -9.5 | 4.0 | 4.5% | 1.0 | -0.8 | -17.2
Nc1nc(SCC(=O)c2cccs2)n[nH]1 | -0.9 | 0.0 | 1.4% | 0.8 | -3.3 | -6.4
O=c1c(Cl)c(NS(=O)(=O)c2ccccc2)cnn1-c1ccccc1 | -1.5 | 8.5 | 0.0% | . | 28.9 | .
CC1(C)C2CC=C(/C=N/NC(=S)Nc3cccnc3)C1C2 (centres undefined) | 3.7 | 0.4 | -0.7% | 0.5 | -3.4 | -4.5
CCN(CC(=O)Nc1c(F)cccc1F)C(=O)c1ccc(C(F)(F)F)cc1 | 5.1 | . | 0.9% | 0.0 | 2.6 | 31.6
CCOC(=O)c1cc(S(=O)(=O)Nc2ccc(Br)c(C)c2)[nH]n1 | . | . | 1.2% | 0.2 | . | 7.6
Cc1ccc(C(=O)NC(=S)Nc2ccc(S(=O)(=O)N3CCN(C)CC3)cc2)cc1 | -10.8 | -21.1 | -1.0% | 0.5 | -19.2 | 7.7
Cc1cc([N+](=O)[O-])nn1CC(=O)NCc1ccco1 | 0.1 | 9.1 | -0.7% | -1.0 | 0.9 | -11.1
CCC(C)NC(=O)c1cc(OC)c(OC)c(OC)c1 (centres undefined) | -2.9 | -2.7 | 4.4%[38.3 µM] | 2.4 | 0.8 | 0.6
COc1ccc(-n2c(Cc3cccn3C)nnc2SCC(=O)Nc2ccc(Cl)cc2)cc1 | 1.5 | -20.3 | -3.6% | 1.7 | -23.3 | 2.0
Cn1c(CCN2CCOCC2)nc2cc(NC(=O)COc3ccccc3)ccc21 | -0.1 | -10.8 | -2.1% | -0.3 | 0.2 | -8.5
COc1ccc(N2CCN(C(C)C(=O)N3CCc4ccccc43)CC2)cc1 (centres undefined) | -0.9 | 3.4 | -1.2% | -0.3 | -17.8 | 17.5
COc1ccc(NC(=O)CCN2CCN(CCO)CC2)c(OC)c1 | . | . | 0.6% | -0.6 | . | 15.8
CC(=O)Nc1ccc2c(c1)nc(CCN1CCOCC1)n2C | -2.9 | 7.9 | 4.7% | -0.5 | 3.1 | 6.7
O=C(CSc1nc(-c2ccccc2)c(-c2ccccc2)o1)Nc1nnc(-c2ccccc2)s1 | -6.0 | -4.8 | 4.6% | -0.1 | 0.7 | 10.0
CCOc1ccc(C=NNC(=O)c2cccc3ccccc23)cc1OCC | 0.4 | -20.5 | -3.4% | 4.1 | ? | 9.7
Cc1ccc(S(=O)(=O)NC2=NCN(C)CN2)cc1[N+](=O)[O-] | -1.1 | -2.7 | 3.4% | 0.1 | 0.9 | -13.1
Cc1c(NC(=O)c2ccc3nsnc3c2)cccc1[N+](=O)[O-] | -8.6 | . | -0.9% | 1.9 | 7.4 | 9.1

The list goes on.
SMILES | D2 ag | CtBP-E1A blk | PINK1 expr mod | TRPML1 ag | Six1-Eya2 inh | TRPML1 inh
Brc1cccc(CNCCCN2CCOCC2)c1 | -1.8 | 1.7 | -2.9% | 4.3 | 1.4 | -0.4
CCOC(=O)N1CCN(C(=O)CN(c2ccc(C)cc2C)S(=O)(=O)c2ccccc2)CC1 | . | . | ? | 1.3 | . | 8.3
CC1(C)CC(=O)C(N=Nc2cccc(F)c2C#N)=C(O)C1 | -15.4 | 8.1 | -0.3% | -0.5 | 0.6 | -14.8
NS(=O)(=O)c1cccc(NC(=O)c2ccc(S(=O)(=O)N3CCCCCC3)cc2)c1 | 3.5 | 2.5 | -0.4% | 0.2 | -8.6 | -0.9
Cc1ccc(S(=O)(=O)N(CC(=O)NCC2CCCO2)C2CCCCC2)cc1 (centres undefined) | -1.9 | 2.7 | -0.7% | 0.2 | 5.7 | -3.8
COc1cc(/C=N/NC(=O)CC23CC4CC(CC(C4)C2)C3)cc(Br)c1OCC(=O)N(C)C | 1.7 | -2.0 | -2.2% | 0.6 | -0.2 | 7.1
COc1ccc(N2C(=O)C3CC=C(Cl)CC3C2=O)cc1 (centres undefined) | 0.1 | -7.1 | 2.9%[38.3 µM] | 1.4 | 5.6 | -4.7
Cc1cc(C(=O)N2CCC(C(F)(F)F)n3nccc32)on1 (centres undefined) | -1.7 | -0.9 | 1.6% | 0.4 | 0.7 | -1.0
O=C(CCCOc1ccccc1)N1CCCc2ccccc21 | -1.1 | 21.7 | 1.0%[38.3 µM] | -0.6 | 2.6 | -5.5
O=C(c1cc(-c2ccc(Cl)cc2Cl)on1)N1CCOCC1 | -0.8 | 9.2 | ? | 1.3 | 4.2 | 18.5
COc1ccc(S(=O)(=O)NCc2cccn2Cc2cccc(C)c2)cc1 | . | . | 1.7% | 3.8 | . | -7.1
